RE007 growth inh = qHTS Assay for Inhibitors of the HIV-1 protein Vpr. S. pombe RE007 Vpr strain, BacTiter-Glo ATP luminescence, 24 h; control for the full effect not named in the record. Potency, µM (titrated, usually from 92.2 µM), inactives show at the highest dose activity change, negative = less growth. hit rate 0.21% among 360,000. AID 651644, 2012; active = well fitted falling curve with a large enough effect; inconclusive = small, poorly fitted or top-dose-only effect; inactive = no such curve, though single readings can be large or run the other way;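 further: nearly all actives have a fitted effect of over 50% in size; the assay follows cell death caused by Vpr and the record does not say whether a fall means rescue or toxicity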
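Fission yeast RE007 carrying one integrated HIV-1 vpr copy, seeded at OD 0.01 in PMG+AL medium with 23 nL pinned compound. Grown 24 h at 30 degrees; viability read by BacTiter-Glo luminescence after 5 min.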
2A StopGo = High Throughput Screening for Foot and Mouth Disease Virus Antivirals. Potency, µM (doses to about 57.9 µM), for the others: at the highest dose signal change, negative = less light. human cells with a luciferase reporter of 2A StopGo recoding; control for the full effect not named in the record. AID 1159524, 2015. hit rate 1.2% among 410,000; active = well fitted falling curve with a large enough effect; inconclusive = small, poorly fitted or top-dose-only effect; inactive = no such curve, though single readings can be large or run the other way; tested in HEK293T cells; further: nearly all actives have a fitted effect of over 45% in size; luciferase light after 4 h
The depositor's hits bear a star; ? = inconclusive; [ ] = remark or other dose. On the % scale 0 is the no-effect control and ±100 the full control effect; potency means the concentration at half of the fitted maximal effect. Only part of the results is shown. The share of hits here may be higher or lower than overall.

SMILES | RE007 growth inh | 2A StopGo
COc1ccc(CCC(=O)Nc2ccc(S(=O)(=O)N3CCOCC3)cc2)cc1OC | -20% | -24%
O=C(NC1CCCC1)C1c2ccccc2OCC(=O)N1CCc1c[nH]c2ccccc12 (stereo not drawn) | -1% | -14%
Cc1ccc(CN2C(=O)CCC2(C)c2nnnn2Cc2ccccc2)cc1 (stereo not drawn) | 0% | -17%
COc1cccc(-c2cnc(C(O)c3ccc(Cl)c(Cl)c3)[nH]2)c1 (stereo not drawn) | -22% | 0%
CSCCC(c1nnnn1C1CCCC1)N1CCN(C/C=C/c2ccccc2)CC1 (stereo not drawn) | -9% | -15%
COc1ccc(F)cc1-c1cc(NC=O)c2ncc(-c3cccc(C(F)(F)F)c3)n2c1 | 0% | ?
Cc1noc(C)c1COc1ccc(C(=O)NCC2(N(C)C)CCCCC2)cc1 | -3% | -11%
Cc1cccc(NC(=O)COC(=O)CN2C(=O)C3CCCCC3C2=O)c1C (stereo not drawn) | 12% | -6%
C[C@H](NC(=O)C1CCN(S(=O)(=O)c2ccccc2)CC1)C(=O)NC1CC1 | -2% | -25%
CC(C)N1CCC1(C)C(=O)Nc1ccc2scnc2c1 (stereo not drawn) | -9% | 0%
CC(C)C[C@@H](CN1CCCC1CN1C(=S)NC[C@@H]1Cc1ccc(O)cc1)N1C[C@H](Cc2ccccc2)N(CC2CCCCC2)C1=S (stereo partly drawn) | -20% | ?
COc1ccc(NC(=O)N(C)[C@H]2C[C@H]3c4[nH]c5ccccc5c4CCN3C(=O)[C@H]2CO)cc1 | -11% | -15%
COC(=O)C1=C(c2cccc(OC)c2OC)C[C@@H]2CC[C@H]1N2C(=O)NC1CC1 | 5% | -12%
O=C(Nc1ccc(Oc2ccccc2)cc1)c1csc([C@@H]2C[C@H](O)[C@@H](CO)O2)n1 | 17%[18.4 µM] | ?
O=C(c1ccc(Cl)c(Cl)c1)N1CCC(=O)N([C@H](COCc2ccc(Cl)cc2)Cc2ccccc2)CC1 | 10% | ?
CN1CCc2cc3c(cc2C1)OCO3 | 2% | 0%
O=C1[C@@H](c2ccccc2)CC[C@@H]2C=CC[C@H]3CCN1[C@@H]32 | -4% | -25%
CC(C)Oc1cccc(NC(=O)C2(C)CCN2C(=O)C(C)C)c1 (stereo not drawn) | -1%[18.4 µM] | 5%
Cc1ccc(S(=O)(=O)N2CCC(=O)N([C@H](COCc3cccc(Cl)c3)C(C)C)CC2)cc1 | 4% | 0%
CCOC(=O)[C@@H]1[C@H]2COc3ccc(Br)cc3[C@@H]2N2C(=O)N(c3cccc(F)c3)C(=O)[C@]12C | -14% | -24%
O=C(Nc1ccc2c(c1)OCCO2)C1c2ccccc2OCC(=O)N1Cc1ccco1 (stereo not drawn) | 1% | -25%
COc1ccc(C2=Nc3ccccc3N(C(=O)c3cccnc3)C2C(=O)NC2CCCC2)cc1 (stereo not drawn) | -33% | 30%
CCN(C(=O)COC(=O)C12CC3CC(CC(O)(C3)C1)C2)c1c(N)n(Cc2ccccc2)c(=O)[nH]c1=O | -3% | -5%
O=c1[nH]c2ccccc2n1C1CCN(C(c2cccs2)c2nnnn2Cc2ccccc2)CC1 (stereo not drawn) | 3% | -5%
CC1(CO)CCCC1NCCNC1CCCC1(C)CO (stereo not drawn) | 1% | -12%
CCOC(=O)C[C@@H]1OC[C@H](CO)N1S(=O)(=O)c1ccc(C)cc1 | -19% | -2%
CCN(CC)CCN(C(=O)c1ccc2c(c1)CCCC2)c1nc2c(OC)cccc2s1 | -6% | ?
COc1cccc(C(C)(O)c2nc(-c3ccccc3)cs2)c1 (stereo not drawn) | 45%[18.4 µM] | -10%
CC(C)C[C@@H](CNCC(=O)[C@H](Cc1c[nH]c2ccccc12)NC(=O)c1[nH]cnc1C(=O)N[C@H](CN)CC(C)C)NC(=O)c1nc[nH]c1C(=O)N[C@@H](CC(=O)O)C(=O)O | 8% | -12%
COC(=O)c1sc(NC(=O)CN2CCN(c3cccc(Cl)c3)CC2)c(C(=O)OC)c1C | 4% | -4%
O=C(CC[C@H]1O[C@@H](n2cnc3c(NC(=O)c4ccccc4)ncnc32)[C@H](O)[C@@H]1O)NCc1ccco1 | -4% | -14%
Cc1ccccc1CN(C)C[C@@H]1OCc2cnnn2CCCC(=O)N([C@@H](C)CO)C[C@H]1C | -3% | -20%
Cn1c(=O)c2c(-c3ccccc3)n(-c3ccccc3N)cc2n(C)c1=O | 10% | 9%
CC1(C(=O)Nc2ccc3c(c2)OCCO3)CCN1C(=O)C1(c2ccccc2)CC1 (stereo not drawn) | 3% | -6%
Cn1c(NCc2ccccc2F)nc2cc(-c3ccsc3)sc2c1=O | 15% | -22%
COc1cccc(C(O)c2nc(-c3cncnc3)cs2)c1 (stereo not drawn) | 5% | -12%
COC(=O)C[C@H]1C=C[C@@H](C(C(=O)OC)C(=O)OC)CN1C(C)=O | 4% | -17%
Cc1ccc([C@H]2N[C@]3(CCCN(Cc4ccc(F)cc4)C3=O)[C@H]3C(=O)N(C)C(=O)[C@@H]23)cc1 | -2% | -18%
CCc1nc2c(OCCOc3ccc(F)cc3)cccn2c1N(C)C(=O)c1ccc(OC)cc1 | -9% | -23%
O=C(NCc1nnnn1-c1ccc(Cl)cc1)C1CC(=O)N(c2ccc(F)cc2)C1 (stereo not drawn) | 6% | -21%
O=C(NCc1cccc(Br)c1)C1CC2Cn3c(nc4ccccc43)C2N1c1ccccc1 (stereo not drawn) | -15% | -14%
CCc1nc2c(OCc3ccc(C(F)(F)F)cc3)cccn2c1N(C=O)Cc1ccc(OC)cc1 | -8% | ?
Cc1cccc(C)c1NC(=O)C1(C)CSCC(=O)N1Cc1ccco1 (stereo not drawn) | 0% | -1%
CCc1nc2ccc(C(=O)N(C)C(C)C)cn2c1N(CC)Cc1cccc(Br)c1 | -6%[18.4 µM] | -14%
Cc1cccc(C)c1-n1nnnc1C(c1cccs1)N1CCC(n2c(=O)[nH]c3ccccc32)CC1 (stereo not drawn) | -3% | ?
C[C@@H]1CN([C@@H](C)CO)C(=O)CCCn2nncc2CO[C@H]1CN(C)S(=O)(=O)c1ccccc1C#N | 2% | -3%
O=C(Nc1cccc(S(=O)(=O)N2CCOCC2)c1)c1cc(S(=O)(=O)N2CCOCC2)c(Cl)cc1Cl | -5% | ?
COC(=O)C1=C(C(=O)OC)[C@@H]2N(Cc3ccccc3)c3ccccc3[C@@]23C[C@@H](C(=O)OC)N(C(=O)NC2CCCCC2)C3=N1 | 4% | -11%
CCCCCCCCN1C(=O)[C@H](CC(=O)NCCCN2CCCC2=O)C[C@@]2(C(=O)OC)CCCCC=C12 | -9% | 0%
C[C@@H]1CCC[C@@]2(O[C@H](CCO)C[C@H](O)[C@H]2O)O1 | -8% | -15%
Cc1cccc(NS(=O)(=O)c2cccc(C(=O)NCC3(N4CCOCC4)CCCCC3)c2)c1 | 3% | 16%
CN1CCN(c2cccc3c2S(=O)(=O)N[C@H](Cc2ccccc2)CO3)CC1 | -15% | 0%
CCOC1=C2[C@H](c3ccc(CC)cc3)N(S(=O)(=O)c3ccc(C)cc3)C[C@H]2C(C#N)(C#N)C(C#N)(C#N)C1 | 0% | 35µM*
COc1ccc(S(=O)(=O)N2CCOC2CNC(=O)C(=O)NCc2ccccn2)cc1OC (stereo not drawn) | 3% | -7%
Cc1cc(C)cc(C(O)c2ncc(-c3ccccc3)[nH]2)c1 (stereo not drawn) | -30% | 59%[activator]
COc1ccc(OC(F)(F)F)cc1CC1(C)C(=O)Nc2cccc(Cl)c21 (stereo not drawn) | ? | 0%
CCCCN1C(=O)C(CC(=O)NC2CCCC2)CC(C(=O)N(C(C)C)C(C)C)=C1C (stereo not drawn) | -2% | -7%
COC(=O)c1cnc(Nc2nc(C(N)Cc3ccc(Cl)cc3)cs2)nc1C(F)(F)F (stereo not drawn) | -15% | -24%
Clc1ccc2nc(-c3ccco3)c(Cc3ccsc3)n2c1 | -27% | ?
C[C@H](CO)N1C[C@H](C)[C@@H](CN(C)Cc2ccc(Oc3ccccc3)cc2)OCc2cnnn2CCCC1=O | -11% | -18%
Additional structures.
SMILES | RE007 growth inh | 2A StopGo
CCc1ccc(N2C=C(C(=O)OC)C(c3ccccc3F)C(C#N)=C2N)cc1 (stereo not drawn) | 10% | -19%
C[C@@H]1CN([C@@H](C)CO)S(=O)(=O)c2ccc(C#CC(C)(C)O)cc2O[C@H]1CN(C)C(=O)C1CCCCC1 | 9% | -17%
CCOC(=O)[C@]12CCC=C1N(Cc1ccco1)C(=O)[C@H](CC(=O)N1CCN(C(=O)C3CC3)CC1)C2 | 4% | -5%
O=C(Cn1cc(F)c(=O)[nH]c1=O)c1ccco1 | -10% | -16%
CCNC(=O)C1(C)CCN(C(=O)c2cccc(OC(C)=O)c2C)C1 (stereo not drawn) | -4%[18.4 µM] | -2%
CCc1nc2ccc(C(=O)N3CCCC(C(N)=O)C3)cn2c1N(C)Cc1ccc(OC)cc1 (stereo not drawn) | -16% | -2%
Fc1ccc(CCn2c(Cn3c(-c4cnccn4)nc4ccccc43)nc3ccccc32)cc1 | 3% | -27%
CCc1nc2c(OCc3ccc(C(F)(F)F)cc3)cccn2c1N(C)C(C)=O | -4%[18.4 µM] | -12%
CCCCC[C@H](C)N1C[C@@H](COCc2ccccc2)Oc2cc(N3CCC[C@H]3COC)ccc2S1(=O)=O | 3% | -1%
CC(=O)Oc1ccc(Cn2c(C)c(C(=O)N(C)Cc3ccc(F)cc3)sc2=O)cc1 | -12%[18.4 µM] | ?
COc1ccc(CN(C)C(=O)/C=C/[C@H]2O[C@@H](n3cnc4c(N)ncnc43)[C@H](O)[C@@H]2O)cc1OC | 5% | -18%
CCCCN(C(C)=O)c1ccc2c(c1)C1CC2CCN1Cc1ccccc1 (stereo not drawn) | 8% | 0%
CN(C)c1cc(C(=O)N(C)c2ccccc2)ncn1 | 6% | 7%
COc1ccccc1-c1cnc(C(O)c2ccc(Cl)c(Cl)c2)[nH]1 (stereo not drawn) | ? | 3%
Cc1c(C(=O)NCc2cccc(Cl)c2)sc(=O)n1Cc1ccc(C(=O)N(C)C)cc1 | -9%[18.4 µM] | ?
CCOC(=O)C1(C)CCCCN1C(=O)c1ccc(N(C)C)cc1 (stereo not drawn) | -5% | 2%
OC[C@@H]1CN(CCN2CCOCC2)C[C@H](n2cnc3c(N4CCCC4)ncnc32)O1 | -4% | -22%
O=C(COC(=O)/C=C/c1cccc(F)c1)NCc1ccc2c(c1)OCO2 | -9% | -16%
COc1cccc(CN2CCC2(C)C(=O)Nc2cccc(Oc3ccccc3)c2)c1F (stereo not drawn) | -3%[18.4 µM] | -27%
c1ccc2c(c1)-c1nc3ccccc3cc1C2N1CCCCC1 (stereo not drawn) | -21% | -21%
COc1ccc(CNC(=O)c2ccc(-c3cccnc3)c3ccoc23)cc1OC | 5%[18.4 µM] | 22µM*
COc1cc(/C=C/CNC[C@H]2O[C@@H](n3cnc(C(N)=O)n3)[C@H](O)[C@@H]2O)ccc1O | -15% | -17%
CN1C[C@@H]2[C@@H]3C(=O)N(Cc4ccccc4)C(=O)[C@@H]3[C@](Cc3ccccc3)(C1=O)N2C(=O)c1ccccc1 | 1% | 58%[activator]
Cc1cc(C)c(NC(=O)CNC(=O)c2cc(C3CC3)nc3c2cnn3C(C)C)c(C)c1 | 8% | -15%
Cc1ccc(S(=O)(=O)N2C3CCCCC3O[C@H]2CC(=O)c2cccs2)cc1 (stereo partly drawn) | 9% | 21%
COC(=O)c1ccc2nc(C3CCCCC3)c(Cc3ccccc3C(F)(F)F)n2c1 | -13% | 0%
COc1ccc(-c2noc3c2-c2nc(-c4ccccc4C)sc2CC3)cc1 | 5% | 12%
CCc1nc2ccc(C(=O)N(C)CCN(C)C)cn2c1N(CC)C(=O)NCCc1ccccc1 | -2% | 6%

6 entries from above, tab-delimited:
structure	RE007 growth inh	2A StopGo
COC(=O)c1sc(NC(=O)CN2CCN(c3cccc(Cl)c3)CC2)c(C(=O)OC)c1C	4%	-4%
O=C(CC[C@H]1O[C@@H](n2cnc3c(NC(=O)c4ccccc4)ncnc32)[C@H](O)[C@@H]1O)NCc1ccco1	-4%	-14%
Cc1ccccc1CN(C)C[C@@H]1OCc2cnnn2CCCC(=O)N([C@@H](C)CO)C[C@H]1C	-3%	-20%
Cn1c(=O)c2c(-c3ccccc3)n(-c3ccccc3N)cc2n(C)c1=O	10%	9%
CC1(C(=O)Nc2ccc3c(c2)OCCO3)CCN1C(=O)C1(c2ccccc2)CC1 (stereo not drawn)	3%	-6%
Cn1c(NCc2ccccc2F)nc2cc(-c3ccsc3)sc2c1=O	15%	-22%

Gathered by group: the entries above containing a cyano group
SMILES | RE007 growth inh | 2A StopGo
C[C@@H]1CN([C@@H](C)CO)C(=O)CCCn2nncc2CO[C@H]1CN(C)S(=O)(=O)c1ccccc1C#N | 2% | -3%
CCOC1=C2[C@H](c3ccc(CC)cc3)N(S(=O)(=O)c3ccc(C)cc3)C[C@H]2C(C#N)(C#N)C(C#N)(C#N)C1 | 0% | 35µM*
CCc1ccc(N2C=C(C(=O)OC)C(c3ccccc3F)C(C#N)=C2N)cc1 (stereo not drawn) | 10% | -19%

Source: PubChem BioAssay (National Center for Advancing Translational Sciences (NCATS))
